Screens (PubChem BioAssay)
rRNA inh HTS: inhibitors of bacterial rRNA selective over humanized ribosomes. E. coli WT GFP vs humanized-ribosome RFP mutants, fluorescence, 24 h; active compounds read low; DMSO median 0, no signal -100. AID 720706. hit rate 1.6% among 350,000. GFP signal change (wild-type ribosome), % (concentration not given with the values);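 active = significant combined selectivity score with lowered wild-type GFP, culture density cut under 30%, mutant RFP and density less affected; inactive = any of these conditions unmet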; note: one replicate is shown; some compounds called inactive have numbers as strong as hits
T cruzi repl: T. cruzi replication inhibition; T. cruzi beta-gal in NIH3T3, luminescence, 90 h; AID 1885; inhibition, % (no concentration beside the values); hit rate 1.4% among 300,000;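 active = mean inhibition across valid replicates above about 55%, limit read from the data; inconclusive = mean below that limit but half or more replicates reach it; inactive = mean below it, under half of replicates reach it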;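 note: signal also drops with host cell toxicity which is not excluded here; 0% = plate median of DMSO wells and 100% = zero luminescence signal; higher percent means less beta-gal luminescence so fewer parasites; stock transfer was 50 nL into about 50 µL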
FGF22 binding: binders of recombinant human FGF22 by thermal shift; Q9HCT0; SYPRO orange fluorescence; percent of sucrose octasulfate shift, DMSO zero; calls only at 9.99 µM; hit rate 1.5% among 340,000;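 active = melting point raised past a set limit in the mean and every replicate; inconclusive = no clear call; three in four hits are not shown here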
Target sequence (Q9HCT0 whole entry, looked up): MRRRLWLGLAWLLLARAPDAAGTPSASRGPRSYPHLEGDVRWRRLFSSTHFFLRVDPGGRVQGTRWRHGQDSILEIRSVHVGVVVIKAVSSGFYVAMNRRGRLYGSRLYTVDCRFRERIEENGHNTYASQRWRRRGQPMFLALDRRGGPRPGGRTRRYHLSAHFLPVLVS
RanGTP-Imp inh: inhibitors of RanGTP-importin-beta interaction, primary screen, biochemical, FRET, CFP-Ran, YFP-importin-beta, homogeneous; cell-free CFP-Ran/YFP-importin-beta FRET ratio; AID 2216; inhibition, % (concentration not given with the values); hit rate 1.1% among 300,000;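 active = most replicates above 15%; inconclusive = exactly half above 15%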;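 note: 0% = DMSO wells and 100% = Ran loaded with GDP instead of GTP; wells of about 40 µL received 100 nL stock; the first replicate is given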
AF4-AF9 inh: MLL-AF4/AF9 protein interaction inhibition; AlphaScreen, biotin-AF4 peptide binding to FLAG-AF9; inhibition, % at 10 µM; hit rate 0.47% among 350,000;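 active = every replicate reaching a set inhibition limit, whatever the replicate mean, cut at about 25% in these data; inconclusive = mean inhibition reaches that limit but some replicates miss it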;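 note: 0% = plate neutral control median and 100% = total signal loss; the record names both 10 and 1 µM as test concentration; the first replicate is given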
Target sequence (P42568 whole entry, looked up): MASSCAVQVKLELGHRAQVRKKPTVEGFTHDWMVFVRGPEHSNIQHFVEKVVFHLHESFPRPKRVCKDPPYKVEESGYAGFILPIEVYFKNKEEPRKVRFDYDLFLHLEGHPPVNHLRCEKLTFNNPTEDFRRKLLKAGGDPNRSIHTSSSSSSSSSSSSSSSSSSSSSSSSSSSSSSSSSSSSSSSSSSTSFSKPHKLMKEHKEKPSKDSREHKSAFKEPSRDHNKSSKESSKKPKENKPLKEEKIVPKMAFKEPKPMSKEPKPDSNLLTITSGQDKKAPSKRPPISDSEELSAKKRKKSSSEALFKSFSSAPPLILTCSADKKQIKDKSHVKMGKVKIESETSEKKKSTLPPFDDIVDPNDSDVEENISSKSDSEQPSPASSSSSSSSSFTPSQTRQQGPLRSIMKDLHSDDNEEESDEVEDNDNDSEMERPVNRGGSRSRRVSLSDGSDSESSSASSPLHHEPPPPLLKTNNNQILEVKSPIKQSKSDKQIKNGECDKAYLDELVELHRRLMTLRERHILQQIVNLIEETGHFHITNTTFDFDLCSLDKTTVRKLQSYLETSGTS
ALR inh: blocks human ALR sulfhydryl oxidase activity | P55789 | purified ALR, DTT oxidation, H2O2 HRP-luminol luminescence | inhibition, % (no concentration beside the values) | hit rate 3.8% among 290,000;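 active = mean and each replicate at 75% or more; inconclusive = only one of the two met; inactive = neither met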;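 note: stock transfer was 7.5 nL into about 7.5 µL; 0% = neutral wells and 100% = wells with inactivated enzyme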
Target sequence (P55789 whole entry, looked up): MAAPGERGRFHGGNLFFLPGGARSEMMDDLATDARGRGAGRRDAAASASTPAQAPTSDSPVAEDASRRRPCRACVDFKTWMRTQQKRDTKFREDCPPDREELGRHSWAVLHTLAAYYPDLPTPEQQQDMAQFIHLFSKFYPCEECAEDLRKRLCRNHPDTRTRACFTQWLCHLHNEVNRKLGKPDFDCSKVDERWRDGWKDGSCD
Calb FLC: affects C. albicans growth with fluconazole; C. albicans CaCi-2 (fluconazole-resistant clinical isolate) + fluconazole, Alamar Blue growth, 48 h; growth inhibition, % (test concentration not listed); hit rate 0.57% among 300,000; AID 1979;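 active = most replicates above 75%; inconclusive = exactly half above 75%; inactive = most below 75%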;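 note: all wells also contain fluconazole at 8 µg/ml as a sub-toxic cotreatment; 0% = median of DMSO wells and 100% = median of geldanamycin control wells; wells of about 8 µL received 7.5 nL stock; the first replicate is given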
Beta apoptosis: beta cell apoptosis inhibition; protection from apoptosis, % (test concentration not listed); INS-1E cytokine-induced death, ATP luminescence, 48 h; percent of positive-control rescue, neutral wells zero; hit rate 0.8% among 300,000;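 active = all replicates at 75% or more, or half of them and the mean; inconclusive = half reach 75% but not the mean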;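 note: 0% = cytokine-treated negative control wells and 100% = positive control rescue; higher means more ATP so stronger rescue from cytokine killing; wells of about 40 µL received 100 nL stock; the first replicate is given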
rRNA inh HTS OD600: also measured in rRNA inh HTS; calls as there; OD600 change, %; measured here: OD600 growth;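 optical density of the mix in the first replicate; 0 = DMSO median and -100 = no signal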
rRNA inh HTS RFP: recorded beside rRNA inh HTS, whose call it bears; RFP signal change, %; measured here: RFP humanized mutant strains;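 first replicate; 0 = DMSO median and -100 = no signal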
The depositor's hits bear a star. Only part of the results is shown. The share of hits here may be higher or lower than overall.

How did CN(C)C(CNC(=O)CN1C(=O)NC2(CCc3ccccc32)C1=O)c1ccco1 (stereo not drawn) do in these assays?
T cruzi repl: -13.6; RanGTP-Imp inh: 6.7; ALR inh: 99.6*; Calb FLC: -5.9; Beta apoptosis: -4.0

What do the screens show for `Cc1cccc(-c2oc3ccc(-c4ccc5c(c4)OCO5)cc3c2-c2ccc(OC3CCCCO3)cc2)c1` (stereo not drawn)?
rRNA inh HTS: 9.3; T cruzi repl: -3.2; FGF22 binding: inactive; RanGTP-Imp inh: -6.0; AF4-AF9 inh: -0.6; Calb FLC: 0.8; Beta apoptosis: -3.0; rRNA inh HTS OD600: 3.3; rRNA inh HTS RFP: 0.0

Results for COc1ccc(C2=NN(c3nc(-c4ccc(CNC(C)=O)cc4)cs3)C(c3ccco3)C2)cc1 (stereo not drawn) ?
rRNA inh HTS: 2.2; T cruzi repl: 11.0; FGF22 binding: inactive; RanGTP-Imp inh: 0.3; AF4-AF9 inh: 1.2; ALR inh: 99.0*; Calb FLC: 11.3; Beta apoptosis: -3.1; rRNA inh HTS OD600: 12.5; rRNA inh HTS RFP: 3.5

Results for CCc1cccc2c(C(=O)COC(=O)/C=C/c3ccc(O)c(OC)c3)c[nH]c12 ?
T cruzi repl: -0.4; RanGTP-Imp inh: -1.6; ALR inh: -4.8; Calb FLC: -1.1; Beta apoptosis: -0.6

Results for COc1ccc(N2C(S)=C(C#N)C(=O)NC2c2ccc(OC)c(OC)c2)cc1 (stereo not drawn) ?
rRNA inh HTS: -7.3; T cruzi repl: -14.5; FGF22 binding: inactive; RanGTP-Imp inh: 0.5; AF4-AF9 inh: -10.0; ALR inh: 14.9; Calb FLC: -12.5; Beta apoptosis: -2.4; rRNA inh HTS OD600: 16.2; rRNA inh HTS RFP: -3.1

What do the screens show for `COc1cc(S(=O)(=O)Nc2ccc3nc(C)sc3c2)ccc1NC(C)=O`?
FGF22 binding: inactive; AF4-AF9 inh: -0.1; ALR inh: -18.1; Beta apoptosis: -0.2

How did COc1ccc(C(=O)OCC(=O)NC(=O)NC2CCCC2)cc1OC do in these assays?
rRNA inh HTS: 2.0; FGF22 binding: inactive; AF4-AF9 inh: -1.1; ALR inh: -14.0; Beta apoptosis: 3.3; rRNA inh HTS OD600: 2.4; rRNA inh HTS RFP: -1.2

What do the screens show for `COC(=O)c1[nH]c2cccc(Cl)c2c1NC(=O)CN1CCN(CCO)CC1`?
T cruzi repl: -0.5; RanGTP-Imp inh: 2.4; ALR inh: -2.9; Calb FLC: -0.9; Beta apoptosis: 1.6

Results for COc1ccc(C2SCCN2S(=O)(=O)c2ccc(NC(C)=O)cc2)cc1 (stereo not drawn) ?
T cruzi repl: 4.8; RanGTP-Imp inh: -2.7; ALR inh: -6.8; Calb FLC: -9.1; Beta apoptosis: -4.1

How did OCCCN1CCN(CCCOc2ccccc2-c2ccccc2)CC1 do in these assays?
T cruzi repl: -2.0; RanGTP-Imp inh: -1.8; ALR inh: -0.7; Calb FLC: 3.4; Beta apoptosis: -5.9

How did CCOC(=O)c1cc(-c2ccccc2)sc1NC(=O)c1cc(OC)c(OC)c(OC)c1 do in these assays?
T cruzi repl: -2.9; RanGTP-Imp inh: inconclusive; ALR inh: -1.3; Calb FLC: -6.7; Beta apoptosis: 11.0

How did O=C(NNC(=O)c1cc(F)c(F)cc1Cl)c1ccc(NS(=O)(=O)c2cccs2)cc1 do in these assays?
rRNA inh HTS: -1.7; FGF22 binding: inactive; AF4-AF9 inh: 1.3; ALR inh: 1.0; Beta apoptosis: 3.6; rRNA inh HTS OD600: 7.3; rRNA inh HTS RFP: 1.2

How did CC(=O)COc1ccc2c(-c3ccccc3)cc(=O)oc2c1C do in these assays?
rRNA inh HTS: -17.9*; T cruzi repl: 0.4; FGF22 binding: inactive; RanGTP-Imp inh: 5.9; AF4-AF9 inh: -3.7; ALR inh: -3.2; Calb FLC: 15.5; Beta apoptosis: -0.6; rRNA inh HTS OD600: -6.2*; rRNA inh HTS RFP: 3.4*

How did COCCN(C(=S)Nc1cccc(C)c1)C(C)c1cccnc1 (stereo not drawn) do in these assays?
rRNA inh HTS: 12.4; T cruzi repl: 1.3; FGF22 binding: inactive; RanGTP-Imp inh: 5.7; AF4-AF9 inh: 3.3; Calb FLC: -4.9; Beta apoptosis: -2.5; rRNA inh HTS OD600: 7.3; rRNA inh HTS RFP: -6.0

How did COc1cc(C(=O)NCc2nnc(SCC(=O)NC3CCCCC3)o2)cc(OC)c1OC do in these assays?
rRNA inh HTS: 0.2; T cruzi repl: -0.2; FGF22 binding: inactive; RanGTP-Imp inh: -3.8; AF4-AF9 inh: -11.0; ALR inh: 1.1; Calb FLC: -5.5; Beta apoptosis: 1.5; rRNA inh HTS OD600: 2.5; rRNA inh HTS RFP: -0.6

Results for OC(COC(c1ccc(Cl)cc1)c1ccc(Cl)cc1)CN1CCc2ccccc2C1 (stereo not drawn) ?
rRNA inh HTS: -16.7; T cruzi repl: 62.1*; FGF22 binding: inactive; RanGTP-Imp inh: 7.6; AF4-AF9 inh: -4.4; ALR inh: -7.0; Calb FLC: -0.5; Beta apoptosis: 0.9; rRNA inh HTS OD600: -19.6; rRNA inh HTS RFP: 34.0

How did CCN(c1ccccc1)S(=O)(=O)c1ccc(Cl)c(NC(=O)COC(=O)c2ccc(Cl)c(N)c2)c1 do in these assays?
T cruzi repl: 18.7; RanGTP-Imp inh: 2.5; ALR inh: -9.1; Calb FLC: -8.4; Beta apoptosis: -5.9

Results for CCN(CC)S(=O)(=O)c1cccc(C(=O)NNC(=O)C2=NN(c3ccccc3)C(=O)CC2)c1 ?
rRNA inh HTS: 0.9; T cruzi repl: -4.4; FGF22 binding: inactive; RanGTP-Imp inh: 2.2; AF4-AF9 inh: 0.3; ALR inh: -6.3; Calb FLC: 5.8; Beta apoptosis: -0.6; rRNA inh HTS OD600: 8.5; rRNA inh HTS RFP: -1.4

How did S=C(Nc1ccc(Cl)cc1)Nc1ccc2cn[nH]c2c1 do in these assays?
rRNA inh HTS: -52.9; T cruzi repl: -3.5; FGF22 binding: active; RanGTP-Imp inh: -1.2; AF4-AF9 inh: -1.1; ALR inh: -12.0; Calb FLC: 4.4; Beta apoptosis: 1.3; rRNA inh HTS OD600: -80.8; rRNA inh HTS RFP: -15.2

Results for Cc1ccc(Cl)c(OCC(=O)Nc2cccnc2)c1 ?
rRNA inh HTS: -2.3; T cruzi repl: -4.5; FGF22 binding: inactive; RanGTP-Imp inh: -5.1; AF4-AF9 inh: -1.9; ALR inh: -3.4; Calb FLC: 5.0; Beta apoptosis: -0.2; rRNA inh HTS OD600: 2.1; rRNA inh HTS RFP: -1.3

What do the screens show for `Cc1ccc(CNC(=O)CN2C(C)CCCC2C)cc1` (stereo not drawn)?
rRNA inh HTS: 10.9; T cruzi repl: 1.1; FGF22 binding: inactive; RanGTP-Imp inh: inconclusive; AF4-AF9 inh: -2.2; ALR inh: -7.1; Calb FLC: 1.2; Beta apoptosis: -7.1; rRNA inh HTS OD600: 10.9; rRNA inh HTS RFP: -5.8

Results for CN(/N=C/c1cc(Br)cc(Br)c1O)c1ccccc1 ?
rRNA inh HTS: 6.1; T cruzi repl: -2.1; FGF22 binding: inactive; RanGTP-Imp inh: -13.5; AF4-AF9 inh: -1.8; ALR inh: -25.5; Calb FLC: -14.7; Beta apoptosis: -2.5; rRNA inh HTS OD600: 8.7; rRNA inh HTS RFP: -2.1

How did CCc1ccc(/C=C2\SC(=S)N(CCC(=O)N3CCN(C)CC3)C2=O)cc1 do in these assays?
rRNA inh HTS: 20.2; T cruzi repl: 12.2; FGF22 binding: inactive; RanGTP-Imp inh: 0.9; AF4-AF9 inh: 3.4; Calb FLC: -11.9; Beta apoptosis: -22.8; rRNA inh HTS OD600: 5.6; rRNA inh HTS RFP: 3.8

How did Cc1cc(C)n(-c2cc(N3CCN(C(=O)c4cccc(F)c4)CC3)ccc2[N+](=O)[O-])n1 do in these assays?
T cruzi repl: 9.4; RanGTP-Imp inh: 5.6; ALR inh: 1.2; Calb FLC: -3.2; Beta apoptosis: 6.5

How did COc1ccc(NC2CS(=O)(=O)CC2OC(=O)c2ccc(F)cc2)cc1 (stereo not drawn) do in these assays?
T cruzi repl: -20.3; RanGTP-Imp inh: -1.8; ALR inh: -2.7; Calb FLC: -8.6; Beta apoptosis: 1.8

How did O=C(Cc1ccccn1)Nc1ccccc1 do in these assays?
T cruzi repl: -17.3; RanGTP-Imp inh: 1.4; ALR inh: -11.0; Calb FLC: -1.8; Beta apoptosis: -0.5

What do the screens show for `CCN(CC)C(=O)c1ccc(S(=O)(=O)Cc2ccc(C)cc2)c([N+](=O)[O-])c1`?
rRNA inh HTS: -5.0; T cruzi repl: -12.8; FGF22 binding: inactive; RanGTP-Imp inh: -12.8; AF4-AF9 inh: 1.0; ALR inh: -14.5; Calb FLC: 9.2; Beta apoptosis: -14.7; rRNA inh HTS OD600: -1.5; rRNA inh HTS RFP: 5.9

Results for Cc1ccc(NC(=O)C2=C(O)CCn3c2nc2ccccc23)cc1 ?
rRNA inh HTS: 5.4; T cruzi repl: 4.6; FGF22 binding: inactive; RanGTP-Imp inh: inconclusive; AF4-AF9 inh: 3.1; ALR inh: -14.6; Calb FLC: 8.9; Beta apoptosis: -0.6; rRNA inh HTS OD600: 8.5; rRNA inh HTS RFP: 1.1

Results for NS(=O)(=O)c1ccc(CCNC(=O)c2ccccc2F)cc1 ?
T cruzi repl: 1.2; RanGTP-Imp inh: 2.3; ALR inh: -15.4; Calb FLC: -23.3; Beta apoptosis: -5.1

What do the screens show for `COc1ccc(N)cc1C#N`?
rRNA inh HTS: 0.9; T cruzi repl: 3.9; FGF22 binding: inactive; RanGTP-Imp inh: 1.5; AF4-AF9 inh: -52.7; ALR inh: -64.0; Calb FLC: -1.2; rRNA inh HTS OD600: 9.8; rRNA inh HTS RFP: -3.7

Results for CC1(C2CC2)NC(=O)N(CC(=O)N2CCN(S(=O)(=O)c3ccc(F)c(F)c3)CC2)C1=O (stereo not drawn) ?
rRNA inh HTS: 6.1; FGF22 binding: inactive; AF4-AF9 inh: 2.1; ALR inh: -2.4; Beta apoptosis: 5.1; rRNA inh HTS OD600: 9.2; rRNA inh HTS RFP: -3.1

How did COc1cccc(C(=O)NCCCNC(=O)c2cccnc2)c1 do in these assays?
rRNA inh HTS: 9.1; T cruzi repl: 0.0; FGF22 binding: inactive; RanGTP-Imp inh: -0.9; AF4-AF9 inh: -15.5; Calb FLC: -0.8; Beta apoptosis: 1.0; rRNA inh HTS OD600: 17.9; rRNA inh HTS RFP: 0.8

How did CCc1ccc(CNC(=O)C2CCCN(c3nnc(C)c4c(C)n(-c5ccccc5)nc34)C2)cc1 (stereo not drawn) do in these assays?
rRNA inh HTS: -53.8; T cruzi repl: 27.0; FGF22 binding: inactive; RanGTP-Imp inh: -13.3; AF4-AF9 inh: 6.0; ALR inh: -0.8; Calb FLC: inconclusive; Beta apoptosis: 33.8; rRNA inh HTS OD600: -74.0; rRNA inh HTS RFP: -19.5
